Ecoli rRNA inh – reduced GFP signal of wild-type E. coli, primary screen, bacterial rRNA inhibitor project, GFP/RFP fluorescence, OD600, single point; AID 720706, 2013; 350,000 tested, 1.6% active; E. coli WT GFP vs humanized-ribosome RFP mutants, 24 h; active compounds read low; DMSO median 0, no signal -100; GFP signal change (wild-type ribosome), % (no concentration beside the values);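 active = significant combined selectivity score with lowered wild-type GFP, culture density cut under 30%, mutant RFP and density less affected; inactive = any of these conditions unmet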; note: one replicate is shown; some compounds called inactive have numbers as strong as hits
Ecoli rRNA inh OD600 – further read-out of Ecoli rRNA inh, marked with its call; OD600 change, %; measured here: OD600 growth;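 optical density of the mix in the first replicate; 0 = DMSO median and -100 = no signal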
Ecoli rRNA inh RFP – recorded beside Ecoli rRNA inh, whose call it bears; RFP signal change, %; measured here: RFP humanized mutant strains;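 first replicate; 0 = DMSO median and -100 = no signal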
* hit, by the source's call; & = joins results of further samples.

SMILES	Ecoli rRNA inh RFP	Ecoli rRNA inh	Ecoli rRNA inh OD600
C[C@@H]1CCCCO[C@H](CN(C)Cc2ccccc2)[C@H](C)CN([C@@H](C)CO)C(=O)c2cc(NC(=O)Nc3ccc(F)cc3)ccc2O1	28	-17	-57
O=C(C[C@H]1C[C@H]2c3cc(NC(=O)c4cccnc4)ccc3O[C@H]2[C@@H](CO)O1)NCCN1CCCCC1	-1.4	2	6
O=C(C[C@H]1C[C@@H]2c3cc(NC(=O)Nc4ccccc4)ccc3O[C@@H]2[C@@H](CO)O1)NCc1cccnc1	-0.5	0	2
C[C@H](CO)N1C[C@H](C)[C@@H](CN(C)S(=O)(=O)c2cccs2)Oc2c(NC(=O)Nc3ccc(F)cc3)cccc2C1=O	1.1	-1	-4
C[C@@H]1CN([C@H](C)CO)C(=O)c2c(c3ccccc3n2C)-c2ccccc2CO[C@@H]1CN(C)C(=O)N[C@H](C)c1ccccc1	0.4	-1	-2
C[C@H]1CN([C@@H](C)CO)C(=O)c2cc(-c3ccccc3)cnc2O[C@@H]1CN(C)C	-0.1	4	-3
Cc1ccccc1S(=O)(=O)N1CC[C@@H]2[C@H]1c1cc(-c3ccc(F)cc3)ccc1N(C)[C@H]2CO	-3.4	-2	5
OC[C@@H]1CN(Cc2ccc(-c3ccccc3)cc2)C[C@H](n2cnc3c(NC4CCCC4)ncnc32)O1	-2.3*	-22*	-15*
COC(=O)[C@@H]1[C@@H](CO)[C@@H]2Cn3c(ccc(C4=CCCC4)c3=O)[C@@H]2N1Cc1ccccn1	1.3	4	8
CC(=O)c1ccc(OC2(C)CCN(Cc3ccc4c(c3)OCCO4)C2)cc1 (stereo unspecified)	0.9	9	20
CCCC(=O)N1CC2(C1)CN(S(C)(=O)=O)[C@@H](CO)c1c2c2ccc(OC)cc2n1C	-1.0	4	-7
C[C@@H](O)C#Cc1ccc([C@H]2[C@@H](CO)N3CCCCN(S(=O)(=O)Cc4ccccc4)C[C@H]23)cc1	1.4	5	5

An excerpt from above in order of their number in Ecoli rRNA inh RFP, lowest first.
SMILES	Ecoli rRNA inh RFP	Ecoli rRNA inh	Ecoli rRNA inh OD600
O=C(C[C@H]1C[C@H]2c3cc(NC(=O)c4cccnc4)ccc3O[C@H]2[C@@H](CO)O1)NCCN1CCCCC1	-1.4	2	6
C[C@H](CO)N1C[C@H](C)[C@@H](CN(C)S(=O)(=O)c2cccs2)Oc2c(NC(=O)Nc3ccc(F)cc3)cccc2C1=O	1.1	-1	-4
C[C@@H](O)C#Cc1ccc([C@H]2[C@@H](CO)N3CCCCN(S(=O)(=O)Cc4ccccc4)C[C@H]23)cc1	1.4	5	5

(more compounds)
SMILES	Ecoli rRNA inh RFP	Ecoli rRNA inh	Ecoli rRNA inh OD600
O=C(C[C@H]1CC[C@@H]2[C@H](COC[C@H](O)CN2Cc2nccs2)O1)NCc1ccccc1F	-3.3	2	5
O=C(Nc1cccc(F)c1)N1[C@@H]2CNC[C@H]1C2c1ccc(-c2cncnc2)cc1 (stereo partly specified)	-0.8	-1	10
COc1ccc2c3c([nH]c2c1)[C@@H](CO)N(S(=O)(=O)c1ccc(C)cc1)CC31CN(C(=O)Cc2cccnc2)C1	-1.8	-1	6
COc1ccc(S(=O)(=O)Nc2ccc3c(c2)CC(=O)N([C@H](C)CO)C[C@H](C)[C@@H](CN(C)S(=O)(=O)c2ccc(C)cc2)O3)cc1	0.1	-3	-7
C[C@H](CO)N1C[C@H](C)[C@@H](CN(C)S(=O)(=O)c2ccc3ccccc3c2)OCc2cnnn2CCCC1=O	-2.1&1.6	3&-8	-4&-1
CCN(c1ccc(OC)cc1)S(=O)(=O)N1CCCC(C(=O)NCc2ccc(OC(C)C)cc2)C1 (stereo unspecified)	1.5	-6	-19
C[C@@H]1CN([C@H](C)CO)C(=O)c2cc(NC(=O)Nc3cccc4ccccc34)ccc2O[C@@H]1CN(C)C(=O)Nc1ccccc1	-4.3	1	1
C[C@H]1CN([C@@H](C)CO)C(=O)c2cc(NS(=O)(=O)c3ccc(F)cc3)ccc2O[C@@H]1CN(C)Cc1ccc2c(c1)OCO2	-0.5	0	7
O=C(C[C@@H]1C=C[C@H](NC(=O)c2ccncc2)[C@@H](CO)O1)NCC1CC1	2.5	0	-5
C[C@@H]1CN([C@H](C)CO)S(=O)(=O)c2ccc(Br)cc2O[C@@H]1CN(C)S(=O)(=O)c1ccccc1	7.5	-11	-25
C[C@H](CO)N1C[C@H](C)[C@@H](CN(C)C(=O)Nc2cccc3ccccc23)Oc2c(NC(=O)Nc3cccc4ccccc34)cccc2C1=O	-1.3	4	6
O=C(C[C@H]1CC[C@H]2[C@@H](COC[C@H](O)CN2C(=O)Nc2ccc(F)cc2)O1)NC1Cc2ccccc2C1	-0.9	-5	-6

(continued)
SMILES	Ecoli rRNA inh RFP	Ecoli rRNA inh	Ecoli rRNA inh OD600
O=C(Nc1nnc([C@H]2C[C@H](O)[C@@H](CO)O2)s1)c1cccc(Oc2ccccc2)c1	-3.4	-16	-8
COc1ccc2c3c(n(C)c2c1)[C@H](CO)N(C(=O)NC1CCCC1)CC31CN(C(C)=O)C1	-1.2	3	6
C[C@@H]1CN([C@@H](C)CO)C(=O)c2cc(C#CCN(C)C)cnc2O[C@H]1CN(C)Cc1ccccn1	-1.4	8	9
COc1ccc(S(=O)(=O)N(C)C[C@@H]2Oc3ncc(C#CC4(O)CCCC4)cc3C(=O)N([C@@H](C)CO)C[C@@H]2C)cc1	0.6	0	4
C[C@@H]1CN([C@@H](C)CO)C(=O)c2cc(NS(=O)(=O)c3cccs3)ccc2O[C@@H](C)CCCCO[C@@H]1CN(C)S(=O)(=O)c1ccccc1	1.8	-2	2
COCC(=O)Nc1ccc2c(c1)C(=O)N(C)[C@H]1CC[C@H](CC(=O)NCCc3ccccc3)O[C@H]1CO2	-3.7	2	1
C[C@H]1CN([C@@H](C)CO)C(=O)c2cccc(NC(=O)NC3CCCCC3)c2O[C@H]1CN(C)Cc1ccncc1	-1.6	0	7
Cc1noc(C)c1NC(=O)N(C)C[C@H]1Oc2ccc(NS(=O)(=O)c3ccc(F)cc3)cc2CC(=O)N([C@@H](C)CO)C[C@@H]1C	3.3	0	7
COCC(=O)N1CC(=O)N2[C@H](C1)[C@@H](c1ccc(C#CC3CCCC3)cc1)[C@@H]2CO	0.4	1	19
C/C=C/c1ccc2c(c1)O[C@H](CN(C)C(=O)c1ccncc1)[C@H](C)CN([C@@H](C)CO)S2(=O)=O	-3.3	0	3
COc1cccc(Cn2cnc(-c3ccccc3OC)c2C2CC2)c1	-16	-46	-77
CCOC(=O)N(C)c1c(CC)nc2c(OCc3ccc(S(C)(=O)=O)cc3)cccn12	-1.6	-1	10

The last 3 entries of the section before come first, to join the parts.
SMILES	Ecoli rRNA inh RFP	Ecoli rRNA inh	Ecoli rRNA inh OD600
C/C=C/c1ccc2c(c1)O[C@H](CN(C)C(=O)c1ccncc1)[C@H](C)CN([C@@H](C)CO)S2(=O)=O	-3.3	0	3
COc1cccc(Cn2cnc(-c3ccccc3OC)c2C2CC2)c1	-16	-46	-77
CCOC(=O)N(C)c1c(CC)nc2c(OCc3ccc(S(C)(=O)=O)cc3)cccn12	-1.6	-1	10
C[C@H](CO)N1C[C@H](C)[C@@H](CN(C)Cc2ccc3c(c2)OCO3)OCCCC[C@H](C)Oc2ccc(NC(=O)Nc3ccccc3)cc2C1=O	35	0	-36
CCCC(=O)N1CCC2(CC1)CN(C(=O)C1CCC1)[C@H](CO)c1[nH]c3cc(OC)ccc3c12	-1.5	-1	-8
CCNC(=O)C1(C)CCN(C(=O)c2ccc(C(F)(F)F)cc2)C1 (stereo unspecified)	1.1	7	8
CCCCNC(=O)C1(C)CCCCN1Cc1ccc2ccccc2c1 (stereo unspecified)	-20	-59	-80
CCS(=O)(=O)Nc1ccc2c(c1)C(=O)N(C)C[C@@H](OC)[C@@H](C)CN(Cc1ccccn1)[C@H](C)CO2	2.4	-1	-5
Cc1ccc(S(=O)(=O)N2CC3=C(C2)C2CC2(C)C3)cc1 (stereo unspecified)	-1.3	-31	-46
CC(C)NC(=O)N1CCCCN2[C@@H](CO)[C@@H](c3ccc(C#C[C@H](C)O)cc3)[C@@H]2C1	4.3	6	24
C[C@@H]1CCCCO[C@@H](CN(C)S(=O)(=O)c2cccs2)[C@@H](C)CN([C@@H](C)CO)C(=O)c2cc(NC(=O)Nc3cccc4ccccc34)ccc2O1	-0.8	-2	3
Cc1noc(C)c1NC(=O)Nc1cccc2c1O[C@H](CN(C)C(=O)Nc1ccccc1)[C@H](C)CN([C@@H](C)CO)C2=O	-1.6	-1	-3
Cc1noc(C)c1NC(=O)Nc1ccc2c(c1)C(=O)N([C@@H](C)CO)C[C@H](C)[C@H](CN(C)Cc1ccccc1)OCCCC[C@@H](C)O2	-1.6	0	3
O=C(Nc1ccccc1)N1CCCCN2[C@H](CO)[C@@H](c3ccc(C#Cc4ccccc4)cc3)[C@H]2C1	-15	-56	-62
COc1cccc(-c2ccc3c(c2)O[C@@H](CN(C)C(=O)C2CCC2)[C@H](C)CN([C@H](C)CO)S3(=O)=O)c1	5.2	-5	-23

Later entries
SMILES	Ecoli rRNA inh RFP	Ecoli rRNA inh	Ecoli rRNA inh OD600
OC[C@H]1[C@H](c2ccc(-c3cccc(F)c3)cc2)[C@@H]2CN(CCC(F)(F)F)CCCCN12	-17	-58	-75
Cc1ccc(-c2cc(NC(=O)Cc3c[nH]c4ccccc34)ccc2N(C)c2cccnc2)cc1	5.1	1	-6
C[C@H](CO)N1C[C@H](C)[C@H](CN(C)S(=O)(=O)c2cn(C)cn2)Oc2c(NS(=O)(=O)c3cccs3)cccc2C1=O	-3.3	-2	-3
C[C@H]1CN([C@@H](C)CO)C(=O)Cc2cc(NC(=O)CCN3CCOCC3)ccc2O[C@@H]1CN(C)C(=O)Nc1ccc(F)cc1	-0.3	1	1
O=S(=O)(c1cccc(F)c1)N1[C@@H]2CNC[C@H]1C2c1ccc(-c2cccnc2)cc1 (stereo partly specified)	-2.6&-0.7	-4&-2	-2&2
CCOC(=O)C1(C)CCN1C(=O)/C=C/c1ccccc1 (stereo unspecified)	1.2	12	12
CCCC#Cc1ccc2c(c1)O[C@@H](CN(C)C(=O)c1cnccn1)[C@@H](C)CN([C@H](C)CO)S2(=O)=O	-1.0	-4	5
O=C(NCC[C@H]1CC[C@@H](NC(=O)C2CC2)[C@@H](CO)O1)c1ccc(F)cc1	-0.5	2	1
COCC#Cc1ccc2c(c1)O[C@H](CN(C)Cc1cncnc1)[C@H](C)CN([C@@H](C)CO)S2(=O)=O	1.1	5	9
COCc1cn(CC[C@@H]2CC[C@H](NC(=O)c3ccccc3)[C@@H](CO)O2)nn1	-3.6	3	6
CC(C)C#Cc1ccc2c(c1)O[C@H](CN(C)C(=O)Cc1ccccn1)[C@@H](C)CN([C@@H](C)CO)S2(=O)=O	2.8	-2	8
C[C@@H]1CN([C@@H](C)CO)C(=O)Cc2cc(NS(=O)(=O)c3ccc(F)cc3)ccc2O[C@@H]1CN(C)Cc1ccc(C(=O)Nc2ccccc2N)cc1	1.5	-3	-4

(further entries)
SMILES	Ecoli rRNA inh RFP	Ecoli rRNA inh	Ecoli rRNA inh OD600
COc1cccc(CNC(=O)C[C@H]2C=C[C@H](NS(=O)(=O)c3ccccc3OC)[C@@H](CO)O2)c1	-0.2	0	2
Cc1ccc(S(=O)(=O)Nc2cccc3c2O[C@@H](CN(C)Cc2ccc(Cl)c(Cl)c2)[C@H](C)CN([C@@H](C)CO)C3=O)cc1	0.1	-1	1
COc1ccc(NC(=O)Nc2ccc3c(c2)[C@H]2C[C@H](CC(=O)NC4CCCCC4)O[C@H](CO)[C@H]2O3)cc1	0.0	-2	-4
C[C@@H]1CCCCO[C@@H](CN(C)C(=O)Nc2ccccc2)[C@H](C)CN([C@H](C)CO)C(=O)c2cc(NS(C)(=O)=O)ccc2O1	-2.9	-1	10
CN(C)CC(=O)N1[C@H](CO)[C@@H](c2ccccc2-c2ccc(C(=O)N(C)C)cc2)[C@@H]1C#N	-2.0	2	12
CCCNC(=O)C[C@H]1CC[C@@H]2[C@H](COC[C@H](O)CN2S(=O)(=O)c2ccccc2F)O1	-2.1	-1	-4
C[C@@H]1CN([C@H](C)CO)C(=O)c2cccc(NC(=O)Nc3ccc(F)cc3)c2O[C@H]1CN(C)Cc1ccc2c(c1)OCO2	2.0	-8	-15
Cc1noc(C)c1S(=O)(=O)N(C)C[C@@H]1Oc2ccc(NC(=O)c3ccncc3)cc2CC(=O)N([C@@H](C)CO)C[C@@H]1C	-1.8	4	0
NCC[C@@H]1CC[C@@H](NS(=O)(=O)Cc2ccccc2)[C@@H](CO)O1	-2.2	3	6
COc1ccc2c3c([nH]c2c1)[C@@H](CO)N(Cc1ccncc1)CC31CCN(Cc2ccc(-c3ccccn3)cc2)CC1	9.3	-7	6
C/C=C/c1ccc2c(c1)O[C@H](CN(C)C(=O)C1CC1)[C@@H](C)CN([C@@H](C)CO)S2(=O)=O	-3.4	-6	-4
COc1cccc(S(=O)(=O)Nc2ccc3c(c2)[C@@H]2C[C@H](CC(=O)NCc4ccccc4F)O[C@H](CO)[C@@H]2O3)c1	-1.0	-8	-13
COc1cc(/C=C2/SC(=S)N(CCC(=O)Nc3cccnc3)C2=O)cc(OC)c1OC	-1.6	1	11
O=C1NC2C3CC(c4ccccc43)C12 (stereo unspecified)	-4.2	-1	10
Cc1ccc(S(=O)(=O)N(C)C[C@H]2OCCCC[C@@H](C)Oc3ccc(NS(C)(=O)=O)cc3C(=O)N([C@@H](C)CO)C[C@H]2C)cc1	1.5	-2	-11

Source: PubChem BioAssay

Not all compounds are listed; count on the stated rates, not on these rows.
